A1 inh: inhibitors of the anti-apoptotic protein A1, read as caspase activation. 330,000 tested, 0.066% active. AID 2462. caspase activation, % (no concentration beside the values). MEF A1-2A-BIM cells, Caspase-Glo 3/7 luminescence, 3 h; percent of clofoctol response, vehicle zero;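 active = over half of replicate activation scores above 10%, or exactly half above 10 with the replicate mean above 10; inconclusive = replicate mean below 10 yet half the replicates above 10; inactive = over half of replicates below 10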;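 note: wells of about 30 µL received 50 nL stock; many hits fall short of the cut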
Beta apoptosis: beta cell apoptosis inhibition; INS-1E cytokine-induced death, ATP luminescence, 48 h; percent of positive-control rescue, neutral wells zero; 300,000 tested, 0.8% active; protection from apoptosis, % (no concentration beside the values);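 active = all replicates at 75% or more, or half of them and the mean; inconclusive = half reach 75% but not the mean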;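 note: 0% = cytokine-treated negative control wells and 100% = positive control rescue; higher means more ATP so stronger rescue from cytokine killing; wells of about 40 µL received 100 nL stock; the first replicate is given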
Calb FLC: C. albicans growth modulation with fluconazole; growth inhibition, % (concentration not given with the values); C. albicans CaCi-2 (fluconazole-resistant clinical isolate) + fluconazole, Alamar Blue growth, 48 h; 300,000 tested, 0.57% active; AID 1979;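 active = most replicates above 75%; inconclusive = exactly half above 75%; inactive = most below 75%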;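 note: all wells also contain fluconazole at 8 µg/ml as a sub-toxic cotreatment; 0% = median of DMSO wells and 100% = median of geldanamycin control wells; wells of about 8 µL received 7.5 nL stock; the first replicate is given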
Vif A3G: inhibitors of Vif binding to APOBEC3G peptide, primary screen, biochemical, TR-FRET, GST-Vif 1-94, biotin-A3G peptide, dose response retest (AID 1117319) | TR-FRET GST-Vif / biotin-A3G peptide binding; higher % means a stronger effect; test concentration not given here; strong numbers were not always called active | inhibition, %, or IC50 in µM where a hit was titrated | 260,000 tested, 0.57% active;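 active = above the screen mean plus three standard deviations and confirmed in dose response; inconclusive = results disagree or hit not tested in dose response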;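 note: Vif residues 1-94 fused to GST binding biotinylated APOBEC3G peptide 110-148; 0% = full assay without inhibitor and 100% = GST in place of GST-Vif; retest series ran down from 100 µM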
AF4-AF9 inh: MLL-AF4/AF9 protein interaction inhibition. P42568. 350,000 tested, 0.47% active. AID 651704. inhibition, % at 10 µM. AlphaScreen, biotin-AF4 peptide binding to FLAG-AF9;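 active = every replicate reaching a set inhibition limit, whatever the replicate mean, cut at about 25% in these data; inconclusive = mean inhibition reaches that limit but some replicates miss it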;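 note: 0% = plate neutral control median and 100% = total signal loss; the record names both 10 and 1 µM as test concentration; the first replicate is given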
Target sequence (P42568 whole entry, looked up): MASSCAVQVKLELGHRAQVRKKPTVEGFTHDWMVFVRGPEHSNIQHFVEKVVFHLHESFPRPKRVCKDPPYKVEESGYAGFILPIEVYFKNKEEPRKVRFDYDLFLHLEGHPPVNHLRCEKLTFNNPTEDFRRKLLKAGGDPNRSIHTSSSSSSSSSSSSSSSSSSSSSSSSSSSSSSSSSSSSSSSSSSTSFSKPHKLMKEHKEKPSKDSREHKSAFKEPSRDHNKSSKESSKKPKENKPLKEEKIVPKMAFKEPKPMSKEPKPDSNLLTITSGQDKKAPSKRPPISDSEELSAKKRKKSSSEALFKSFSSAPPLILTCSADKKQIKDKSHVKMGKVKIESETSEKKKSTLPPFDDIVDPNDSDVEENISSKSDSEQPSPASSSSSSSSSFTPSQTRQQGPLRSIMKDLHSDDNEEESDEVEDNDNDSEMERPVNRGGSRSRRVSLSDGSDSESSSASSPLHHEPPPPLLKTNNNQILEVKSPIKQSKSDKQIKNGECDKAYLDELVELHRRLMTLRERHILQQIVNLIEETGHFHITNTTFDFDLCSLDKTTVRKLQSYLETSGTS
RanGTP-Imp inh: inhibitors of RanGTP-importin-beta interaction, primary screen, biochemical, FRET, CFP-Ran, YFP-importin-beta, homogeneous. cell-free CFP-Ran/YFP-importin-beta FRET ratio. inhibition, % (concentration not given with the values). 300,000 tested, 1.1% active. AID 2216;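 active = most replicates above 15%; inconclusive = exactly half above 15%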;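 note: 0% = DMSO wells and 100% = Ran loaded with GDP instead of GTP; wells of about 40 µL received 100 nL stock; the first replicate is given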
Ecoli rRNA inh: selective bacterial rRNA inhibition in E. coli; E. coli WT GFP vs humanized-ribosome RFP mutants, fluorescence, 24 h; active compounds read low; DMSO median 0, no signal -100; GFP signal change (wild-type ribosome), % (concentration not given with the values); 350,000 tested, 1.6% active; AID 720706;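 active = significant combined selectivity score with lowered wild-type GFP, culture density cut under 30%, mutant RFP and density less affected; inactive = any of these conditions unmet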; note: one replicate is shown; some compounds called inactive have numbers as strong as hits
T cruzi repl: T. cruzi replication inhibition; 300,000 tested, 1.4% active; inhibition, % (no concentration beside the values); T. cruzi beta-gal in NIH3T3, luminescence, 90 h;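 active = mean inhibition across valid replicates above about 55%, limit read from the data; inconclusive = mean below that limit but half or more replicates reach it; inactive = mean below it, under half of replicates reach it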;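 note: signal also drops with host cell toxicity which is not excluded here; 0% = plate median of DMSO wells and 100% = zero luminescence signal; higher percent means less beta-gal luminescence so fewer parasites; stock transfer was 50 nL into about 50 µL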
Ecoli rRNA inh OD600: second read-out of Ecoli rRNA inh, no call of its own (marks repeat the call); OD600 change, %; measured here: OD600 growth;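 optical density of the mix in the first replicate; 0 = DMSO median and -100 = no signal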
Ecoli rRNA inh RFP: second read-out of Ecoli rRNA inh, no call of its own (marks repeat the call); RFP signal change, %; measured here: RFP humanized mutant strains;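 first replicate; 0 = DMSO median and -100 = no signal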
* = called active by the depositor; ? = inconclusive; . = not tested or not shown; & = joins results of further samples.

SMILES | A1 inh | Beta apoptosis | Calb FLC | Vif A3G | AF4-AF9 inh | RanGTP-Imp inh | Ecoli rRNA inh | Ecoli rRNA inh OD600 | Ecoli rRNA inh RFP | T cruzi repl
CCOC(=O)c1cc2c(ccn2C)n1CC(=O)N1CCN(c2ccc(F)cc2)CC1 | 0.0 | . | -2 | 10% | 8.1 | 2.3 | -3 | -3 | 1.0 | 19
Fc1ccc(N2CCN(Cc3cn[nH]c3-c3ccccc3)CC2)cc1 | -0.4 | -4 | -1 | -7% | 7.1 | -1.1 | . | . | . | -2
CC(=O)N(c1ccc(C)cc1)c1nc(C)cc(C)c1C#N | -1.2 | -3 | 8 | 3% | . | -1.0 | 14 | 2 | 1.3 | -9
CC(=O)c1cccc(NC(=O)N2CCCC2C(=O)Nc2ccccc2C)c1 (centres undefined) | 0.8 | -8 | 5 | -4% | . | -1.3 | . | . | . | -21
CC(O)(c1ccccc1)C(c1ccccc1)C1CCCCN1 (centres undefined) | 0.6 | -1 | -13 | 16% | -6.5 | -2.8 | 7 | 1 | -6.2 | 2
CC1(C)CC(=O)C2=C(C1)NC(=O)CC2C(=O)NCc1ccc(F)cc1 (centres undefined) | . | . | 3 | 0% | . | 7.9 | . | . | . | -5
COc1ccc(OC)c(CCNC(=O)C(C)n2nc(C)c3c(C)n(-c4ccc(C)cc4)nc3c2=O)c1 (centres undefined) | 1.6 | 23 | -15 | . | 1.7 | 0.7 | 15 | 4 | 0.4 | 11
Cc1csc(=NC(=O)c2ccccc2)n1C | -4.2 | -10 | 2 | . | . | 1.3 | . | . | . | -12
O=C(Oc1cncc(Cl)c1)c1sccc1Cl | 0.4 | -3 | -3 | . | -17 | -2.1 | 6 | 5 | 2.0 | -10
CCC1Sc2ccccc2N(CC(=O)NCc2ccccc2OC)C1=O (centres undefined) | 0.0 | -2 | -2 | 1% | . | -2.8 | . | . | . | -7
C=CCn1c(-c2ccccc2)cc(SC)c(C#N)c1=O | 0.3 | -16 | 5 | . | -0.4 | -0.5 | 8 | 14 | 0.7 | 23
O=C1CSC(=S)N1/N=C/c1c(F)cccc1F | 1.2 | 0 | -3 | . | -0.4 | 3.4 | -2 | 7 | 2.2 | -12
O=C(CN(Cc1ccccc1Cl)C(=O)c1csnn1)NC1CCCC1 | 0.8 | 13 | 8 | -3% | 1.2 | 3.6 | 10 | 6 | 0.3 | -3
Cc1ccc(CNC(=O)CCC(=O)N2CC(C)Oc3ccc(Cl)cc32)cc1 (centres undefined) | -0.3 | 0 | -3 | . | -6.9 | -6.6 | -36 | -57 | -8.3 | 9
Cc1ccc(C(=O)N/C(=C\c2ccccc2)C(=O)OCc2ccccc2)cc1 | ? | 5 | -1 | 11% | . | 7.9 | . | . | . | -9
Cc1cc(NC(=O)CCC(=O)N(Cc2ccco2)C(C(=O)NCC2CCCO2)c2ccncc2)no1 (centres undefined) | 1.0 | 0 | -4 | -8% | -2.5 | -0.6 | 14 | 9 | 4.2 | -2
O=C(CN(C(=O)CNS(=O)(=O)c1ccc(F)cc1)c1cccc(F)c1)NCC1CCCO1 (centres undefined) | 0.0 | -7 | 4 | . | -1.3 | 2.3 | 2 | 8 | -0.7 | -2
COC(=O)Cc1csc(NC(=O)CSc2nnc3ccccn23)n1 | 0.1 | -7 | -4 | 30% | -0.8 | -3.7 | . | . | . | 1
CCOC(=O)N=Nc1c(O)n(CC(=O)OC)c2ccccc12 | -0.3 | -1 | -11 | . | . | -3.8 | . | . | . | -9
COC(=O)c1ccc2c(c1)N(C)CCS2 | -0.6 | -5 | -11 | 13% | -8.6 | 2.1 | 3 | 11 | 2.5 | 4
O=C(NCC1CCCN(C2Cc3ccccc3C2)C1)c1cccs1 (centres undefined) | -1.0 | 9 | 0 | . | -2.6 | 0.4 | 2 | 9 | 1.7 | -19
CC12CCCC[C@@H]1CCC1C2CCC2(C)C1CC[C@@]2(O)CNCCO (some centres undefined) | 0.3 | -1 | 29 | 1% | 0.5 | ? | 1 | 7 | -0.7 | -2
Cc1ccc(N2C(=O)[C@@H]3[C@H](C2=O)C2c4ccccc4C=CN2[C@@H]3C(=O)c2ccco2)c(C)c1 (some centres undefined) | -0.2 | -3 | -2 | . | . | ? | . | . | . | 14
COc1ccccc1C(=O)C1CCCN(C(=O)c2cccc(-n3cccn3)c2)C1 (centres undefined) | 0.5 | -1 | -4 | 4% | -4.5 | -3.4 | -7 | -9 | -3.1 | 2
C=CCN(CC=C)C(=O)C1CCN(S(=O)(=O)c2ccc(N3CCCC3=O)cc2)CC1 | -0.4 | -3 | 2 | . | -0.9 | 4.7 | 3 | 11 | 1.8 | -13
O=C(O)CCCn1cc(NC(=O)c2ccc(F)cc2)cn1 | 0.0 | -4 | 4 | -12% | -2.3 | 4.9 | 11 | 9 | 0.8 | -1
CCOc1ccc(-c2cc(CCCC(=O)NCc3ccc(C)cc3)no2)cc1 | -0.1 | -7 | 6 | 5% | -5.2 | -1.3 | 8 | 2 | -1.0 | 6
CC1=CC(C)(C)NC(=S)N1c1cccc(C)c1 | 0.1 | -5 | -13 | 13%&-4% | -1.0&-3.6 | ? | 8&8 | -1&-2 | 1.3&6.2 | -15
COc1ccc(C(=O)NCC(=O)OCC(=O)N2CCc3ccccc32)cc1 | 1.5 | 5 | -5 | 2% | 0.1 | 2.2 | -7 | -1 | 0.1 | -10
COc1ccccc1/C=N/NC(=Nc1ccc(C)cc1)c1nc2ccccc2s1 | 0.0 | 1 | -12 | 1% | . | -1.5 | . | . | . | 21
O=C(O)c1ccccc1S(=O)(=O)NCC(O)COc1ccc(Br)cc1 (centres undefined) | 1.3 | . | -5 | 0%&3% | . | 3.1 | . | . | . | -28
O=C(CN1CCCN(Cc2ccc(F)cc2Cl)C1=O)NC1CCCCCC1 | -0.1 | 6 | -12 | 11% | 0.3 | 1.3 | -44 | -71 | -14 | -11
O=C(NC1CCCCC1)C(c1ccc2ncccc2c1)N(Cc1ccc(F)cc1)C(=O)c1ccc2c(c1)OCCO2 (centres undefined) | -0.9 | -4 | 87* | 22% | 5.1 | 1.3 | -8 | -26 | 1.2 | 8
O=C(NCc1ccco1)c1ccc(C(F)(F)F)cc1 | -0.5 | -1 | 22 | 12% | 0.3 | 1.4 | 3 | 7 | 3.2 | -11
N#Cc1ccccc1NC(=O)Nc1ccccc1 | 0.2 | -6 | 29 | 6% | -0.9 | -3.5 | -5 | -4 | -2.6 | -20
CN(C)S(=O)(=O)Nc1ccc2c(c1)OCO2 | -0.7 | -6 | 2 | 14% | 0.4 | 2.4 | 8 | 2 | -2.0 | 12
CCOc1ccc(NC(=O)CSc2nc(C3CC3)nc3ccccc23)cc1 | 0.4 | 2 | -19 | -8% | -18 | ? | 8 | 3 | 1.3 | 10
CCCCCN(C(=O)CCC(=O)OC(C)C(=O)c1ccc(Cl)cc1)c1c(N)n(CCCC)c(=O)[nH]c1=O (centres undefined) | -0.4 | -4 | 2 | -5% | -1.2 | 0.9 | -5 | 0 | 0.7 | -6
Cc1cnc(C(=O)OC(C(=O)c2ccccc2)c2ccccc2)cn1 (centres undefined) | -0.1 | -4 | . | -3% | -0.8 | . | -2 | 6 | -3.6 | .
CCc1ccc(CCN2C(=O)c3ccccc3C2=O)nc1 | -0.1 | -3 | 0 | 5% | -8.3 | 3.4 | 1 | -3 | -5.7 | 0
O=C(/C=C/c1ccccc1)c1ccccc1O | -1.3 | 2 | -3 | 21% | . | -2.9 | . | . | . | -14
O=C1Nc2ccc(Br)cc2/C1=N/N=C/C1=C(N2CCOCC2)C(=C\c2ccccc2)/CC1 | -0.7 | -9 | 4 | ? | . | 3.9 | 1 | 4 | 18 | 13
O=C(CNC(=O)c1cccc(OC(F)F)c1)Nc1ccc(Cl)cc1 | 0.0 | -2 | -4 | . | -2.3 | 7.7 | 5 | 5 | -3.7 | 6
O=C(N[C@@H](Cc1ccccc1)C(=O)O)c1ccc(C(F)(F)F)cc1 | -0.3 | -4 | -1 | 3% | -1.2 | -3.2 | 7 | -8 | 14 | -8
CC1CCc2sc(C(=O)Nc3ccc(C(N)=O)cc3)cc2C1 (centres undefined) | 0.3 | 4 | -2 | -8% | 3.3 | 1.2 | -3 | 1 | 1.1 | -1
Cc1nc(CN(C)C(=O)C2CCC(=O)N(CCc3cccc(F)c3)C2)cs1 (centres undefined) | 0.7 | -2 | -2 | . | -1.3 | 0.4 | 2 | 4 | 0.7 | -12
Cc1cc(F)c(F)c(C(=O)N2CCC(C)CC2)c1Cl | -0.6 | 3 | 1 | -1% | -2.9 | 5.7 | 7 | 5 | -1.1 | -13
Cc1cccc2cc(/C=N/NC(=O)c3ccncc3)c(Cl)nc12 | 0.1 | 6 | -1 | -4% | -1.0 | -0.5 | 10 | 7 | -0.4 | 0
CCOc1ccc(CN(C(=O)c2ccccn2)c2ccc(OC)c(Cl)c2)cc1 | 0.5 | -6 | 1 | 2% | -10 | -1.1 | -2 | -10 | 4.0 | -1
COc1ccc(Cn2ccnc2)cc1Br | -0.7 | -10 | -11 | 6% | . | 1.1 | . | . | . | 20

(list continues)
SMILES | A1 inh | Beta apoptosis | Calb FLC | Vif A3G | AF4-AF9 inh | RanGTP-Imp inh | Ecoli rRNA inh | Ecoli rRNA inh OD600 | Ecoli rRNA inh RFP | T cruzi repl
CC(C)C(=O)O/N=C(\N)c1ccc(Oc2ccc(Cl)cc2)c([N+](=O)[O-])c1 | 0.0 | 20 | 7 | 14% | . | -3.2 | 3 | 1 | -1.9 | 5
Cc1ccc(COc2ccccc2-c2cc(C(=O)N/N=C/c3cccnc3)[nH]n2)cc1 | 2.0 | 4 | 0 | 4% | 5.2 | ? | -5 | 15 | 2.6 | 32
Cc1csc(C(=O)O)c1NC(=O)c1c(Cl)cccc1Cl | -0.1 | -2 | -7 | 4% | 1.8 | -2.4 | -1 | -7 | -4.5 | -8
CCOC(=O)Cc1[nH]nc2c1C(Cc1ccccc1)C(C#N)=C(N)O2 (centres undefined) | -0.2 | 3 | 2 | -3% | 0.1 | 0.1 | . | . | . | -14
CCOC(=O)c1cc[nH]c1CC(=O)NC | 0.7 | -6 | -4 | 24% | 0.5 | -1.9 | 11 | 18 | -0.8 | -5
CCCCC(=O)OCc1nc2ccccc2s1 | -0.4 | -5 | -9 | . | -3.5 | 3.5 | 13 | 11 | 1.9 | -9

Bioassay records from PubChem.

An excerpt (hit frequency here may not be typical).
